# Screening data deposited in PubChem by several laboratories.
# HSV replic up = HSV replication enhancement. HSV replication augmentation in cells, fold increase. maximum fold increase. 0.005% of 220,000 active. AID 1956;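 active = peak rise of 1.5-fold or more in the series; tested in PC3 cells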;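 note: first round at 10 µM; read as green reporter fluorescence; hits show the peak of a series up to 25 µM; 1 = signal of infected wells without compound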
# PKD1 inh = PKD1 (human) kinase inhibition; AID 797; 0.056% of 200,000 active; inhibition, %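 (about 10 µM by stock and volumes)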; PKD1 kinase fluorescence polarization assay;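 active = inhibition of 50% or more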;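 note: controls were vehicle for no effect and a reference inhibitor for full effect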
# Insulin prom inh = TRM-6 insulin promoter activity inhibition | TRM-6 cells (human fetal islet line), insulin promoter-eGFP reporter, imaging; reporter expression induced with tamoxifen | inhibition, % at 2 µM | 0.9% of 130,000 active;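 active = inhibition above the mean plus 3 SD, with well images judged a real hit on visual review, cut at about 60% in these data, passing the limit was not always enough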
# GALR2 ag = GALR2 (human) receptor agonism; GALR2-expressing cells, agonist activation read-out; 0.48% of 140,000 active; AID 803; activation, %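 (tested at 5 µM)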; O43603;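 active = above mean plus 3 SD of all compounds, about 5% in these data, not always enough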;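 note: 0% = vehicle buffer wells and 100% = reference agonist at full effect; tested in CHO reporter cells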
# Target sequence (O43603 whole entry, looked up): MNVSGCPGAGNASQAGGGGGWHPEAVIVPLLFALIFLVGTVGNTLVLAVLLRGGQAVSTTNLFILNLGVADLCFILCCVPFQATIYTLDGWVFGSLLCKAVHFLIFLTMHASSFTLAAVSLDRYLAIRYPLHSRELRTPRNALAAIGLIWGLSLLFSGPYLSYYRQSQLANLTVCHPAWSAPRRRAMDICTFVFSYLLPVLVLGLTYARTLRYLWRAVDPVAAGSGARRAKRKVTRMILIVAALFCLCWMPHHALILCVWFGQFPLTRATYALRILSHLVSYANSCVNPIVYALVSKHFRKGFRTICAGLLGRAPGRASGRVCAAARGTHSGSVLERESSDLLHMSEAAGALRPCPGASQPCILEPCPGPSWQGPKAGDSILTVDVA
# RGS16-Gao HTS = RGS16-Galphao interaction regulator (human). binding response (% of control), % at 10 µM. AID 1441. 0.38% of 220,000 active. O15492+P09471. bead-based flow cytometry RGS16-Galphao binding, fluorescence; actives lie on both sides;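 active = below 25% or above 175%, edge rows of some plates excepted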;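 note: Galphao activated by GDP with aluminum fluoride before binding; 100% = wells without compound and 0% = beads without RGS; some results beyond the cut were filed as inactive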
# Target sequence (O15492 whole entry, looked up): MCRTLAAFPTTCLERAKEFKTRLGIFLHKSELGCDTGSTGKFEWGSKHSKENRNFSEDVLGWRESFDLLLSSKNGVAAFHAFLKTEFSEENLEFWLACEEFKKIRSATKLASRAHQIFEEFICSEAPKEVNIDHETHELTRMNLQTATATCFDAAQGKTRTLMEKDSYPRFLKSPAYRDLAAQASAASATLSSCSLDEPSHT
# Target sequence (P09471 whole entry, looked up): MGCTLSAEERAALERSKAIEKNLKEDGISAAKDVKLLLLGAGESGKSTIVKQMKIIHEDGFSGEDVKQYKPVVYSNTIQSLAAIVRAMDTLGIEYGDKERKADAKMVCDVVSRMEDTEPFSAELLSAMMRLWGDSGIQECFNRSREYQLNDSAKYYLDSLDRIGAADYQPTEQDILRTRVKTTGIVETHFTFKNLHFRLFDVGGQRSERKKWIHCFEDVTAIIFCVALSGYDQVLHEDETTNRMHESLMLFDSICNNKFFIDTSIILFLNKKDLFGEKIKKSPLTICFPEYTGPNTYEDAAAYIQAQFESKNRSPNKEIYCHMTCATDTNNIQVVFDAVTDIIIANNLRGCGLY
# Insulin prom inh cell count = recorded beside Insulin prom inh, whose call it bears; normalized cell count, %; measured here: cell count, toxicity; reference of the scale not given here;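 cells exposed to compound for 48 h; stained nuclei by imaging scaled within each plate; lower means fewer cells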
# HSV replic up primary fold = further read-out of HSV replic up, marked with its call; fold increase; compound at 10 µM; measured here: primary screen fold increase 10 uM; tested in PC3 cells;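 GFP signal in the first replicate; 1 = infected wells without compound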
# Active calls of the source: *; i = inactive; nt = not tested or not shown.
# Short keys – A = HSV replic up; B = HSV replic up primary fold; C = PKD1 inh; D = Insulin prom inh; E = Insulin prom inh cell count; F = GALR2 ag; G = RGS16-Gao HTS
[1] O=C(NCc1cccnc1)c1nc(-c2cccs2)no1
  A = i | B = 0.96 | C = -5 | D = nt | E = nt | F = nt | G = 101

[2] COc1ccccc1-n1cnnc1SCC(=O)c1cc(C)n(Cc2cccs2)c1C
  A = i | B = 0.93 | C = 1 | D = nt | E = nt | F = -1.3 | G = 107

[3] CCCCC(=O)Nc1cccc(-c2cn3ccccc3n2)c1
  A = i | B = 0.88 | C = 4 | D = -23 | E = 105 | F = -1.5 | G = 101

[4] Cc1cc(NC(=O)c2cc(-c3ccco3)on2)nn1Cc1ccc(Cl)cc1
  A = nt | B = nt | C = 0 | D = 12 | E = 99 | F = -1.8 | G = 99

[5] CC(C)CC(=O)NC(=S)Nc1nc(-c2ccc(Cl)cc2)cs1
  A = i | B = 0.92 | C = 2 | D = -21 | E = 55 | F = -1.4 | G = 99

[6] O=C(CSCCc1ccccn1)Nc1cccnc1Cl
  A = i | B = 0.89 | C = 0 | D = 41 | E = 94 | F = -2.9 | G = 104

[7] CCCC(=O)Nc1nc(C)c(C(C)=O)s1
  A = i | B = 0.98 | C = 10 | D = nt | E = nt | F = nt | G = 109

[8] CC1Cc2ccccc2N1C(=O)Cn1nc(C(=O)O)c2ccccc2c1=O (centres undefined)
  A = i | B = 0.88 | C = 2 | D = 22 | E = 103 | F = -0.8 | G = 91

[9] OC1CCN(Cc2cccc3ccccc23)CC1
  A = i | B = 0.89 | C = nt | D = nt | E = nt | F = nt | G = 42

[10] Cc1ccc(S(=O)(=O)NNC(=O)C2CCN(S(=O)(=O)c3ccc(C)cc3)CC2)cc1
  A = i | B = 0.77 | C = -9 | D = -8 | E = 66 | F = 1.5 | G = 105

[11] O=C(NO)c1ccccc1C(F)(F)F
  A = i | B = 0.89 | C = -3 | D = -71 | E = 34 | F = nt | G = 116

[12] CC(C)N1CCN(Cc2cc(F)ccc2-n2cccn2)CC1CCO (centres undefined)
  A = i | B = 1.1 | C = -7 | D = nt | E = nt | F = nt | G = 98

[13] CC(=O)Nc1ccc(NC(=O)CC2Nc3cccc4cccc(c34)NC2=O)cc1 (centres undefined)
  A = nt | B = nt | C = 1 | D = nt | E = nt | F = -2.9 | G = 84

[14] Cc1ccc(NC(=O)CCn2c(=S)oc3ccccc32)cc1
  A = i | B = 0.95 | C = -5 | D = 36 | E = 100 | F = nt | G = 105

[15] Cc1nc2c(Cl)cc(Cl)cc2[nH]1
  A = i | B = 0.89 | C = -10 | D = 73* | E = 170* | F = -2.5 | G = 102

# Part of the list above, set out differently.
# Results follow in this order: HSV replic up | HSV replic up primary fold | PKD1 inh | Insulin prom inh | Insulin prom inh cell count | GALR2 ag | RGS16-Gao HTS
(3) CCCCC(=O)Nc1cccc(-c2cn3ccccc3n2)c1
 : i | 0.88 | 4 | -23 | 105 | -1.5 | 101
(4) Cc1cc(NC(=O)c2cc(-c3ccco3)on2)nn1Cc1ccc(Cl)cc1
 : nt | nt | 0 | 12 | 99 | -1.8 | 99
(5) CC(C)CC(=O)NC(=S)Nc1nc(-c2ccc(Cl)cc2)cs1
 : i | 0.92 | 2 | -21 | 55 | -1.4 | 99
(6) O=C(CSCCc1ccccn1)Nc1cccnc1Cl
 : i | 0.89 | 0 | 41 | 94 | -2.9 | 104
(7) CCCC(=O)Nc1nc(C)c(C(C)=O)s1
 : i | 0.98 | 10 | nt | nt | nt | 109
(8) CC1Cc2ccccc2N1C(=O)Cn1nc(C(=O)O)c2ccccc2c1=O (centres undefined)
 : i | 0.88 | 2 | 22 | 103 | -0.8 | 91
(9) OC1CCN(Cc2cccc3ccccc23)CC1
 : i | 0.89 | nt | nt | nt | nt | 42
(10) Cc1ccc(S(=O)(=O)NNC(=O)C2CCN(S(=O)(=O)c3ccc(C)cc3)CC2)cc1
 : i | 0.77 | -9 | -8 | 66 | 1.5 | 105
(11) O=C(NO)c1ccccc1C(F)(F)F
 : i | 0.89 | -3 | -71 | 34 | nt | 116
(12) CC(C)N1CCN(Cc2cc(F)ccc2-n2cccn2)CC1CCO (centres undefined)
 : i | 1.1 | -7 | nt | nt | nt | 98
(13) CC(=O)Nc1ccc(NC(=O)CC2Nc3cccc4cccc(c34)NC2=O)cc1 (centres undefined)
 : nt | nt | 1 | nt | nt | -2.9 | 84
(14) Cc1ccc(NC(=O)CCn2c(=S)oc3ccccc32)cc1
 : i | 0.95 | -5 | 36 | 100 | nt | 105

# (more compounds)
# Short keys – A = HSV replic up; B = HSV replic up primary fold; C = PKD1 inh; D = Insulin prom inh; E = Insulin prom inh cell count; F = GALR2 ag; G = RGS16-Gao HTS
[16] CCc1nc(C)cn1S(=O)(=O)c1cc([N+](=O)[O-])ccc1Cl
  A = i | B = 0.9 | C = -8 | D = nt | E = nt | F = nt | G = 98

[17] COc1ccc2c(C)cc(=O)[nH]c2c1
  A = i | B = 0.79 | C = -11 | D = nt | E = nt | F = -1.1 | G = 103

[18] Cn1nc(C(F)(F)F)c2cc(C(=O)NC3CC3)sc21
  A = i | B = 1 | C = -11 | D = 57 | E = 107 | F = 0.5 | G = 106

[19] O=C(CCCN1C(=O)CCC1=O)Nc1ccc2c(c1)OCO2
  A = i | B = 0.95 | C = 5 | D = 42 | E = 100 | F = 0.7 | G = 97

[20] COc1cccc(CC2(CO)CCN(Cc3cccn3-c3cccnc3)CC2)c1
  A = i | B = 0.96 | C = 8 | D = nt | E = nt | F = nt | G = 102

[21] CN(Cc1cccnc1)Cc1cn(C)nc1-c1ccc(Oc2ccccc2)cc1
  A = i | B = 0.97 | C = 9 | D = nt | E = nt | F = nt | G = 97

[22] Cc1cccc(C(C#N)c2nc3ccccc3nc2C(F)(F)F)c1 (centres undefined)
  A = i | B = 0.95 | C = -1 | D = nt | E = nt | F = -0.2 | G = nt

[23] COc1c(C)cccc1C(=O)Nc1ccc(N2CCOCC2)c(Cl)c1
  A = i | B = 0.86 | C = -1 | D = -32 | E = 105 | F = -1.1 | G = 96

[24] Cc1onc(-c2ccccc2)c1C(=O)Nc1cccc2nsnc12
  A = i | B = 0.88 | C = -5 | D = 38 | E = 110 | F = -1.4 | G = 104

[25] NS(=O)(=O)c1ccc(CNC(=O)/C=C/c2c(Cl)cccc2Cl)cc1
  A = nt | B = nt | C = 1 | D = -11 | E = 115 | F = -3.4 | G = 97

[26] O=C(CC1CCCCC1)NCc1nc(-c2ccccc2)no1
  A = i | B = 0.79 | C = nt | D = nt | E = nt | F = nt | G = 104

[27] COC(=O)c1nn(-c2ccccc2)c(Sc2ccc(Cl)cc2)c1/C=N/O
  A = i | B = 0.86 | C = 0 | D = -23 | E = 84 | F = -1.1 | G = 105

[28] Brc1ccc2cccnc2c1
  A = i | B = 0.95 | C = 0 | D = 32 | E = 199 | F = -4.7 | G = 99

[29] C/C(=N\OC(=O)c1ccc(Cl)c(Cl)c1)c1sc(C)nc1C
  A = i | B = 0.79 | C = 8 | D = -43 | E = 63 | F = -2.6 | G = 100

[30] CC(Oc1cccc(F)c1)C(=O)/C=C\N(C)C (centres undefined)
  A = i | B = 0.88 | C = -8 | D = 17 | E = 125 | F = -0.3 | G = 111

[31] Cc1ccccc1NC(=S)N(CCCN1CCCCC1)Cc1ccco1
  A = i | B = 0.96 | C = 1 | D = -72 | E = 106 | F = 0.5 | G = 97

[32] C=CCSc1nc(C)c(Cc2cccc3ccccc23)c(=O)[nH]1
  A = i | B = 0.96 | C = -3 | D = nt | E = nt | F = nt | G = 100

[33] CCOC(=O)c1nn(-c2ccc(OCC)cc2)c2nc(-c3cccc(OC)c3)c(C#N)c(=O)n12
  A = i | B = 0.91 | C = -6 | D = 36 | E = 44 | F = 0.3 | G = 108

[34] S=C1c2ccccc2CN1c1ccccc1
  A = i | B = 1.1 | C = 6 | D = 31 | E = 130 | F = -0.7 | G = 111

[35] C/C(=N\NC(=O)C1CC1)c1cccnc1
  A = i | B = 1.1 | C = -2 | D = -5 | E = 135 | F = -0.5 | G = 92

[36] Cc1noc(C)c1C(=O)Nc1nc(C23CC4CC(CC(C4)C2)C3)cs1
  A = i | B = 1 | C = 2 | D = -238 | E = 55 | F = -1.8 | G = 98

[37] CC[n+]1c(C)sc2c(C)cc(C)cc21
  A = i | B = 1.1 | C = -7 | D = 12 | E = 110 | F = -2.5 | G = 95

[38] NS(=O)(=O)c1ccc(CNC(=O)/C=C/c2ccccc2[N+](=O)[O-])cc1
  A = i | B = 1 | C = -4 | D = -36 | E = 63 | F = nt | G = 99

[39] Cc1cccc(N2C(=O)CN=C2Nc2nc(C)cc(C)n2)c1
  A = i | B = 0.94 | C = 0 | D = -21 | E = 114 | F = -1.6 | G = 94

[40] Cc1ccc(NC(=O)c2sc3nc(N)c(C#N)cc3c2N)cc1
  A = i | B = 1.1 | C = 2 | D = nt | E = nt | F = -1.0 | G = 109

[41] CCOC(=O)c1c(C)n(CCO)c2ccc(O)cc12
  A = i | B = 0.73 | C = -16 | D = 57 | E = 121 | F = -1.1 | G = 92

[42] Cc1ccc2[nH]cc(CCNC(=O)c3cccnc3)c2c1
  A = i | B = 1.1 | C = -10 | D = 31 | E = 126 | F = -1.9 | G = 102

[43] CCn1c(SCC(=O)NCC2CCCO2)nc2c(c1=O)SC(C)C2 (centres undefined)
  A = i | B = 0.96 | C = -1 | D = -20 | E = 111 | F = 0.0 | G = 109

[44] CC1(C(=O)NC2CCCCCC2)CCC(=O)N1Cc1ccc2c(c1)OCO2 (centres undefined)
  A = i | B = 0.8 | C = 9 | D = nt | E = nt | F = -1.5 | G = 103

[45] CC(=O)Nc1cccc2c1C(=O)N(c1ccccc1C)C2=O
  A = i | B = 1.1 | C = -6 | D = nt | E = nt | F = nt | G = 100

[46] Cc1ccc(-n2nnnc2SCC(=O)c2c(N)n(CC(C)C)c(=O)n(C)c2=O)cc1
  A = i | B = 1.1 | C = -7 | D = nt | E = nt | F = -3.0 | G = 69

[47] C=CCc1ccc(OCCOc2cccc(/C=N/n3cnnc3)c2)c(OC)c1
  A = i | B = 1 | C = -3 | D = -44 | E = 51 | F = -0.8 | G = nt

[48] O=C(COc1cccc2ccccc12)NNC(=O)c1cnccn1
  A = i | B = 0.93 | C = -3 | D = 29 | E = 138 | F = -2.0 | G = 107

[49] O=C1C(=O)N(CNc2ccccn2)c2ccccc21
  A = i | B = 0.84 | C = -2 | D = 15 | E = 31 | F = -2.0 | G = 111

[50] CN1CC(c2ccc(C#N)cc2)C2(COc3ccccc3C2=O)C12C(=O)Nc1ccccc12 (centres undefined)
  A = i | B = 0.81 | C = 2 | D = -14 | E = 100 | F = -1.8 | G = 103

[51] Cc1ccccc1OCc1n[nH]c(=S)n1Cc1ccccc1
  A = i | B = 1.1 | C = -7 | D = 0 | E = 81 | F = -0.7 | G = 99
